D2 potentiator – human D2 receptor positive allosteric modulation; P14416; DiscoveRx D2 beta-arrestin cells, luminescence, 90 min; 100% = 57 uM dopamine signal; potentiation, % (no concentration beside the values); 360,000 compounds, 0.23% hits; active = potentiation of 50% or more; inconclusive = 30% to 50%; inactive = 30% or less;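 further: compound concentration not given in the record; tested on top of an EC20 dose of dopamine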
Target sequence (P14416 whole entry, looked up): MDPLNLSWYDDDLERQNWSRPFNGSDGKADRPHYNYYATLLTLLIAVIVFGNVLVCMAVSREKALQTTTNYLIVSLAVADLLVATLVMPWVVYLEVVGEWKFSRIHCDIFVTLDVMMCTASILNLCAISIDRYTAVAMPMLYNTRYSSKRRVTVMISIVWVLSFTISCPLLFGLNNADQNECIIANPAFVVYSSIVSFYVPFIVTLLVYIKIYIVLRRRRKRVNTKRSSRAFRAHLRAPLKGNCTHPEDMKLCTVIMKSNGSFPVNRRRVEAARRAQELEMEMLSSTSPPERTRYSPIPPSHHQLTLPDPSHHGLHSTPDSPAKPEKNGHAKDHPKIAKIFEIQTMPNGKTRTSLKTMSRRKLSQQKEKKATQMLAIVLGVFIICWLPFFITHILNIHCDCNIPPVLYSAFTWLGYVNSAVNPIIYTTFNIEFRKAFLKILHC
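PathHunter beta-arrestin assay in DiscoveRx D2 cells. Compounds were added with an EC20 of dopamine (50 nM final) for 90 min at 37 deg C. Luminescence was read 1 h after detection reagent, with 57 uM dopamine as the EC100 control.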
Six1-Eya2 inh – blocks human Six1 binding to Eya2; 360,000 compounds, 0.56% hits; AlphaScreen GST-Six1/His-Eya2 binding, biochemical; hits give low values; control for the full effect not named in the record; Q15475+O00167; activity change, % (no concentration beside the values); AID 651725; in the data active = activity change below about -65%; inconclusive = about -30% to -65%; inactive = above about -30%; further: on the % scale 0 is the no-effect control and ±100 the full control effect
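Compounds are tested against tagged Six1 and Eya2 proteins bridged by glutathione donor and nickel acceptor beads; after a one-hour incubation at 37 °C without light, AlphaScreen emission is recorded.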
gsp antag – antagonists of gsp mutant (McCune-Albright syndrome); gsp-mutant cells, cAMP HTRF, 30 min; control for the full effect not named in the record; Potency, µM (series often up to 76.9 µM), for inactives: at the highest dose activity change, negative = inhibition, usual class: inhibitors; 340,000 compounds, 0.4% hits; AID 624288; active = falling curve of any shape with a large fitted effect; inconclusive = falling curve, mostly with a smaller effect; inactive = flat or rising curve; cell line not stated here;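 further: intracellular cAMP measured with PDE inhibitor Ro 20-1724 present during compound exposure; potency means the concentration at half of the fitted maximal effect; on the % scale 0 is the no-effect control and ±100 the full control effect; nearly all actives have a fitted effect of over 65% in size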
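HTRF cAMP measurement after 30 min RT detection following 30 min, 37C compound treatment alongside […] (added as 300 uM solution) in G418-selected cells seeded at 2000/well and grown 16–24 h.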
CtBP-E1A blk – CtBP/E1A binding inhibition; 340,000 compounds, 0.49% hits; AlphaScreen GST-E1A/His-CtBP binding, 1536-well; hits give low values; control for the full effect not named in the record; activity change, % (concentration not given with the values); in the data active means activity change below about -65%; inconclusive means about -30% to -65%; inactive means above about -30%; further: on the % scale 0 is the no-effect control and ±100 the full control effect
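Steps: dispense buffer (Tris pH 8.0, NaCl 300 mM, TCEP 1 mM, BSA, Tween 20); add 5X protein mix (GST-E1A, His-CtBP, 125 nM each); pin 23 nL compound; 2 h at 37 °C, dark; add 5X beads (50 ug/mL); 1 h; read.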
D2 ag – activates the human D2 dopamine receptor; P14416; DiscoveRx PathHunter D2 beta-arrestin, luminescence, 90 min; 100% = 57 uM dopamine signal; activation, % (test concentration not listed); 360,000 compounds, 0.084% hits; AID 624465; in the data active = activation above about 40%; inconclusive = about 15% to 40%; inactive = below about 15%; further: compound concentration not given in the record; the text of the record calls up to 30% inactive
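Agonist mode: compounds alone added to overnight-plated D2 PathHunter cells for 90 min at 37 C, with 57 uM final dopamine (EC100) defining full response. Beta-arrestin recruitment detected by chemiluminescent reagent, read after 1 h at ambient temperature.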
gsp agonist – gsp mutant agonism. gsp mutant cells, cAMP HTRF, 30 min; control for the full effect not named in the record. Potency, µM (doses to about 76.9 µM), for the others: at the top dose activation (cAMP increase), usual class: activators. 340,000 compounds, 0.13% hits. AID 624287; active = well fitted activation curve with a large enough effect; inconclusive = small, poorly fitted or top-dose-only effect, or another doubt; inactive = no such curve, though single readings can be large or run the other way; cell line not stated here;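 further: phosphodiesterase inhibitor Ro 20-1724 added with compounds to block cAMP breakdown; potency means the concentration at half of the fitted maximal effect; nearly all actives have a fitted effect of over 60% in size; about a fifth of the inactives were tested at one dose only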
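Cells in DMEM/10% FBS with G418 were pretreated with compounds in DMSO plus […] (300 uM stock) for 30 min at 37C. cAMP was measured by HTRF (cAMP-d2 plus anti-cAMP antibody-K) after 30 min at room temperature.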
* marks the source's active call; other numbers are inactive results; ? = inconclusive; . = no result given; [ ] = dose if it differs, or a comment.

Codes: A = D2 potentiator; B = Six1-Eya2 inh; C = gsp antag; D = CtBP-E1A blk; E = D2 ag; F = gsp agonist
> Cc1ccc(C)c(S(=O)(=O)NCc2ccc(C(=O)N3CCCCCC3)cc2)c1
  A = -9; B = 16; C = ?; D = 1; E = 7.2; F = -3%

> O=C1CC(Sc2ncccn2)C(=O)N1c1ccccc1 (stereo not given)
  A = -15; B = -1; C = -2%; D = 3; E = -1.2; F = -8%

> O=C(Nc1cccc(-c2nnco2)c1)c1cccs1
  A = -16; B = -6; C = -9%; D = .; E = -3.8; F = -1%

> Cc1nc2ccccc2c(=O)n1/N=C/c1ccccn1
  A = -2; B = 1; C = 10%; D = 0; E = 0.7; F = -10%

> Cc1cccc(CCNC(=O)CC2C(=O)NCCN2Cc2ccccc2C)n1 (stereo not given)
  A = 6; B = 2; C = -21%; D = 5; E = -2.7; F = 42%

> CCOc1ccc2[nH]c(=O)c(CN(Cc3cccnc3)C(=O)Nc3ccccc3OC)cc2c1
  A = 1; B = 3; C = 5%; D = -2; E = 0.2; F = 1%

> O=C(CNC(=O)c1cccc(F)c1)N/N=C/c1ccc([N+](=O)[O-])s1
  A = -5; B = 3; C = -11%; D = .; E = 10; F = -9%

> CC12CCC(=O)N1C(C(=O)OCC(=O)Nc1ccc(Cl)c(Cl)c1)CS2 (stereo not given)
  A = -3; B = 1; C = -19%; D = 11; E = -0.4; F = 5%[15.4 µM]

> CC(C)(C)c1ccc(OCCCN2CCCC2)cc1
  A = -3; B = 14; C = -1%; D = .; E = -3.4; F = 0%

> CCc1nc2cc([N+](=O)[O-])c([N+](=O)[O-])cc2[nH]1
  A = -3; B = 3; C = 2%; D = 0; E = 1.6; F = 25%[15.4 µM]

> N#C/C(=C\c1ccc(-c2ccc(F)cc2)o1)C(=O)Nc1nc(-c2cccs2)cs1
  A = -38; B = -11; C = -3%; D = 0; E = -6.4; F = -16%

> CCCC1(C(=O)OCC)NC(c2ccc(O)cc2)C2C(=O)N(c3ccc4c(c3)OCCO4)C(=O)C21 (stereo not given)
  A = -6; B = 3; C = -14%; D = 11; E = -0.6; F = -2%

> CCC(CO)Oc1cc(NC(=O)c2cccc(C)c2)c2ncn(C(C)C)c2c1 (stereo not given)
  A = 14; B = 0; C = -15%; D = -22; E = 11; F = .

> CCOc1ccc(N2C(=O)CCC2=O)cc1
  A = -16; B = 2; C = 7%; D = 5; E = -1.8; F = -25%

> S=C(Nc1cccc(Cl)c1)N1CCOCC1
  A = -4; B = 1; C = 11%; D = 5; E = 0.4; F = -53%[inhibitor]

2 entries from above, with tabs.
SMILES	D2 potentiator	Six1-Eya2 inh	gsp antag	CtBP-E1A blk	D2 ag	gsp agonist
Cc1cccc(CCNC(=O)CC2C(=O)NCCN2Cc2ccccc2C)n1 (stereo not given)	6	2	-21%	5	-2.7	42%
CCOc1ccc2[nH]c(=O)c(CN(Cc3cccnc3)C(=O)Nc3ccccc3OC)cc2c1	1	3	5%	-2	0.2	1%

The list goes on.
Codes: A = D2 potentiator; B = Six1-Eya2 inh; C = gsp antag; D = CtBP-E1A blk; E = D2 ag; F = gsp agonist
> Cc1cc2nc(CN(C)Cc3c(C(=O)N(C)C)nc4ccc(Cl)cn34)[nH]c2cc1C
  A = -3; B = -7; C = 4%; D = 4; E = -4.4; F = -6%[15.4 µM]

> CCCCN(C(C)=O)c1c(CC)nc2ccc(C(=O)NCCOc3ccc(OC)cc3)cn12
  A = -1; B = 0; C = .; D = -2; E = -0.4; F = .

> O=C(NCc1cccnc1)/C(=C/c1ccc(-c2cccc(Cl)c2)o1)S(=O)(=O)c1ccccc1
  A = 9; B = 2; C = 19%; D = 5; E = -3.0; F = -49%[inhibitor]

> COc1ccc(C(=O)/C=C/c2ccccc2)c(O)c1
  A = -49; B = 1; C = -24%; D = -7; E = -10; F = .

> N#Cc1c(C(F)(F)F)cc(-c2cccs2)nc1SCc1cccnc1
  A = -8; B = 8; C = -15%; D = 7; E = -0.1; F = 0%

> CCOC(=O)N1CCN(C(=O)/C(=C/c2cccc3ccccc23)NC(=O)c2ccc(OC)cc2)CC1
  A = -1; B = -5; C = -4%; D = -5; E = -4.0; F = 5%

> O=C(CSc1nc2ccc(Cl)cc2[nH]1)Nc1ccc2[nH]c(=O)[nH]c2c1
  A = -26; B = -1; C = -1%; D = -9; E = -2.0; F = 2%[15.4 µM]

> O=C(O)c1ccc(C2SCC(=O)N2Cc2ccccc2)cc1 (stereo not given)
  A = ?; B = 5; C = -6%; D = 0; E = 0.8; F = 18%

> Cc1cc(OCC(=O)Nc2ccccc2C(N)=O)c2c(C)cc(=O)oc2c1
  A = -7; B = -1; C = -4%; D = 0; E = -2.9; F = .

> COc1ccc(CNC(=O)C(OC(C)=O)c2ccccn2)cc1 (stereo not given)
  A = -14; B = 23; C = 27%; D = 0; E = -2.9; F = -20%

> CC(C)n1nc(C(=O)Nc2cccc(S(=O)(=O)NCc3ccco3)c2)c2ccccc2c1=O
  A = -9; B = -14; C = -8%; D = .; E = 3.5; F = 28%

> COC(=O)c1cc(C(=O)c2ccc(C(C)(C)C)cc2)c[nH]1
  A = -4; B = 0; C = -12%; D = 5; E = -8.0; F = 19%[15.4 µM]

> CCOCC(=O)N1CCc2ccccc21
  A = -5; B = 26; C = 10%; D = 1; E = -8.3; F = 2%

> CCOc1ccc(OCCCC(=O)N(C)CC(=O)Nc2ccccc2Br)cc1
  A = -5; B = -1; C = 4%; D = 0; E = -2.8; F = -4%[15.4 µM]

> COc1ccc(NS(=O)(=O)c2ccc(C)c(C(=O)O)c2)cc1
  A = 0; B = 1; C = 2%; D = -5; E = -1.0; F = -10%

> Cc1cccc2sc(NC(=O)C3CCN(C(=O)c4ccco4)CC3)nc12
  A = -5; B = -12; C = -28%; D = -12; E = -1.5; F = 0%

> CN1CCN(NC(=O)c2cc(-c3ccccn3)nc3ccccc23)CC1
  A = -10; B = -5; C = 10%; D = -1; E = -2.6; F = -11%[15.4 µM]

> CCn1c(Cc2ccccc2)nnc1SCC(=O)Nc1ccccc1F
  A = 4; B = 0; C = -4%; D = 10; E = 2.9; F = -41%

> O=C(O)CN1C(=O)SC(Nc2ccc(C(=O)O)cc2)C1=O (stereo not given)
  A = -28; B = -1; C = 6%; D = 2; E = -4.0; F = 5%

> CCOc1ccc2nc(NC(=O)CN3CCC(n4nnc5cc(C(F)(F)F)ccc54)CC3)sc2c1
  A = -10; B = 5; C = -21%; D = 7; E = 0.1; F = -22%

> CC(=O)c1ccc(S(=O)(=O)N2CCN(C(C)=O)CC2)cc1
  A = -6; B = -1; C = 4%; D = 0; E = -4.0; F = -8%[15.4 µM]

> COc1ccc(C(=O)C2CCCN(C(=O)c3cccc(Cn4cccn4)c3)C2)cc1F (stereo not given)
  A = -3; B = 4; C = -13%; D = -26; E = -0.2; F = ?

> Cc1ccc(S(=O)(=O)Nc2cccc3c2O[C@H](CN(C)Cc2ccc(-c4ccccc4)cc2)[C@@H](C)CN([C@H](C)CO)C3=O)cc1
  A = .; B = 9; C = ?; D = 14; E = 1.9; F = .

> Cn1cc(C(=O)Nc2ccc(C#N)cc2)c2ccccc2c1=O
  A = 2; B = ?; C = -5%; D = ?; E = 2.0; F = -3%

> CCOC(=O)C1=C(C)OC(N)=C(C(=O)OCC)C1c1ccncc1 (stereo not given)
  A = -3; B = -1; C = -7%; D = 1; E = -3.3; F = 10%

> COc1ccccc1OCc1nnc(SCC(=O)N2CCCC2)o1
  A = -5; B = 0; C = 12%; D = 9; E = -2.5; F = -4%[15.4 µM]

> COc1ccc2c(c1)c1ncn(CCN3CCCCC3)c(=O)c1n2C
  A = -19; B = -15; C = 11%; D = -19; E = -0.6; F = 16%

> Cc1cc(C(=O)N/N=C/C=C/c2ccc([N+](=O)[O-])cc2)n[nH]1
  A = 6; B = -7; C = -5%; D = -9; E = 1.4; F = 2%

> Nc1ccn([C@@H]2O[C@H](COS(=O)(=O)O)[C@@H](O)[C@H]2O)c(=O)n1
  A = -4; B = 1; C = 8%; D = 4; E = 1.7; F = .

> C/C=C/c1ccc(OCC(=O)NCc2ccccc2OC)c(OC)c1
  A = 2; B = -19; C = 1%; D = -18; E = -15; F = 5%[15.4 µM]

Next section, overlapping the part above by three compounds.
Codes: A = D2 potentiator; B = Six1-Eya2 inh; C = gsp antag; D = CtBP-E1A blk; E = D2 ag; F = gsp agonist
> Cc1cc(C(=O)N/N=C/C=C/c2ccc([N+](=O)[O-])cc2)n[nH]1
  A = 6; B = -7; C = -5%; D = -9; E = 1.4; F = 2%

> Nc1ccn([C@@H]2O[C@H](COS(=O)(=O)O)[C@@H](O)[C@H]2O)c(=O)n1
  A = -4; B = 1; C = 8%; D = 4; E = 1.7; F = .

> C/C=C/c1ccc(OCC(=O)NCc2ccccc2OC)c(OC)c1
  A = 2; B = -19; C = 1%; D = -18; E = -15; F = 5%[15.4 µM]

> CN(C)C(=O)c1cccn(Cc2cccc(C(F)(F)F)c2)c1=O
  A = -5; B = 5; C = 7%; D = 2; E = -1.1; F = 20%

> C(=C\c1ccccn1)/c1ccncc1
  A = 4; B = -6; C = 0%; D = .; E = 6.9; F = -37%[inhibitor]

> O=C1c2cccc3c(N4CCCCC4)ccc(c23)C(=O)N1c1ccccc1O
  A = -8; B = 48; C = ?; D = 38; E = -3.0; F = 8%

> O=C(CCNC(=O)c1ccc(Cl)cc1)NC1CCCCCC1
  A = 3; B = 0; C = 4%; D = 4; E = -4.2; F = 4%

> CC(=O)N1CCC(C(=O)NCCOc2ccc(C)cc2)CC1
  A = -1; B = -2; C = 12%; D = 5; E = -3.4; F = 4%[15.4 µM]

> CC(C)(C)OC(=O)N[C@@H](Cc1ccccc1)C(=O)NCC1CCC(C(=O)N[C@@H](CCC(N)=O)C(=O)O)CC1 (stereo not given in full)
  A = 1; B = 14; C = 1%; D = 11; E = 0.3; F = -47%[inhibitor][15.4 µM]

> Cc1cc(C)nc(SCCC(=O)Nc2ccccc2Cl)n1
  A = -9; B = 11; C = -27%; D = -4; E = -1.6; F = 14%[15.4 µM]

> CCOc1ccc(/C(O)=C2/C(=O)C(=O)N(c3ccccn3)C2c2ccc(F)cc2)c(C)c1 (stereo not given)
  A = 1; B = 3; C = 11%; D = 2; E = -1.3; F = 16µM*

> Fc1ccc(-c2csc3ncnc(Nc4ccc(N5CCOCC5)cc4)c23)cc1
  A = 3; B = ?; C = -9%; D = -10; E = -0.7; F = -5%

> CN1CCN(S(=O)(=O)c2ccc(N3CCN(c4ccc(O)cc4)CC3)c([N+](=O)[O-])c2)CC1
  A = ?; B = -25; C = -5%; D = -18; E = ?; F = 25%[15.4 µM]

> Cc1ccc(OCc2nnc(SCC(=O)Nc3ccc4c(c3)OCO4)n2C)cc1
  A = -2; B = -2; C = 6%; D = -2; E = -3.5; F = -7%

> Cc1ccc(Oc2nc3ccccn3c(=O)c2/C=C(\C#N)C(=O)NC2CCS(=O)(=O)C2)cc1 (stereo not given)
  A = -15; B = -1; C = -16%; D = .; E = -1.9; F = ?

> C/C(=N\NC(=O)Cn1cc([N+](=O)[O-])cn1)c1ccc(O)cc1
  A = -13; B = 7; C = 15%; D = .; E = -2.1; F = 0%
